UCH37 inh – inhibitors of human UCH37 deubiquitinase, primary screen, biochemical, Ub-AMC cleavage, fluorescence. Ubiquitin carboxyl-terminal hydrolase isozyme L5 (Homo sapiens), Q9Y5K5. purified proteasome/UCH37. inhibition, % (concentration not given with the values). 330,000 compounds, 0.33% hits. AID 588478, 2011;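 active means mean of two replicates above 20%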;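 further: 0% = compound-free wells with enzyme and 100% = wells lacking proteasome; stock transfer was 100 nL into about 20 µL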
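Material: Human UCH37 enzyme supplied as purified proteasome complex | Schedule: 30 min preincubation with enzyme, 25 min cleavage at room temperature | Detection: AMC fluorescence 355/460 nm | Measure: % inhibition of Ub-AMC cleavage fluorescence | Controls: Wells without proteasome as full block, compound-free enzyme plus substrate as uninhibited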
FGF22 binding – binders of human FGF22 protein, primary screen, FGF22 synaptogenesis inhibitor project, biophysical, thermal shift, single point | calls only at 9.99 µM | 340,000 compounds, 1.5% hits | recombinant FGF22 thermal shift, SYPRO orange fluorescence; percent of sucrose octasulfate shift, DMSO zero | Fibroblast growth factor 22 (Homo sapiens), Q9HCT0;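 active means melting point raised past a set limit in the mean and every replicate; three in four hits are not shown here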
E coli growth – E. coli growth inhibition, primary screen, OD600; Escherichia coli growth, 23 h; hits give low values; OD600 absorbance (concentration not given with the values); 330,000 compounds, 0.21% hits; AID 1053175, 2014;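 active means OD600 absorbance below the run mean of sample wells minus 3.6 SD, in any replicate, cut at about 0.56 in these data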;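 further: stock transfer was 300 nL into about 60 µL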
B2AR ag – beta2AR agonists driving receptor internalization, primary screen, cell-based, FAP fluorogen, flow cytometry. Beta-2 adrenergic receptor (Homo sapiens), P07550. Am2.2-beta2AR cells; reference of the scale not given here. response, % (concentration not given with the values). 340,000 compounds, 0.43% hits;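 active means response above a set limit, near 3 SD of response in nonfluorescent compounds, cut at about 42% in these data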;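 further: stock transfer was 100 nL into about 11 µL; a reference agonist was the positive control; negative values mostly stem from fluorescent compounds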
Target sequence (P07550 whole entry, looked up): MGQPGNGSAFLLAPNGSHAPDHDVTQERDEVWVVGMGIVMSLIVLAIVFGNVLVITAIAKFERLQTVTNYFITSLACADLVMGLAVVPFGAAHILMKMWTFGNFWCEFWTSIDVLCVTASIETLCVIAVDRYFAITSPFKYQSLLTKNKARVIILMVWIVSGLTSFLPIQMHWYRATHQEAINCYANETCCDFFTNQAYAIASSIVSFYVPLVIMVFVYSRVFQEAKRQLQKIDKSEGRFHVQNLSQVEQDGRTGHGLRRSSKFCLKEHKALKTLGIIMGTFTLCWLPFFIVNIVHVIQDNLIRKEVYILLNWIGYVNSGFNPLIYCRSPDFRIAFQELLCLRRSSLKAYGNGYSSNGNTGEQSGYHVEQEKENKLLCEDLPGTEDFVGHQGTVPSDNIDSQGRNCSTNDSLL
HNF4A DNA FP – change in binding of human HNF4A to DNA, primary screen, biochemical, fluorescence polarization, FITC-DNA. 1 h. activity change, % at 10 µM. 360,000 compounds, 0.3% hits. AID 1224865, 2016. Hepatocyte nuclear factor 4-alpha (Homo sapiens), P41235; in the data active means activity change above about 30%, passing the limit was not always enough;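 further: controls were the assay level and a saturating level of protein; the project sought stronger binding though the title names inhibitors; some compounds called inactive have numbers as strong as hits; positive values seem to mean higher polarization but the record does not say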
Target sequence (P41235 whole entry, looked up): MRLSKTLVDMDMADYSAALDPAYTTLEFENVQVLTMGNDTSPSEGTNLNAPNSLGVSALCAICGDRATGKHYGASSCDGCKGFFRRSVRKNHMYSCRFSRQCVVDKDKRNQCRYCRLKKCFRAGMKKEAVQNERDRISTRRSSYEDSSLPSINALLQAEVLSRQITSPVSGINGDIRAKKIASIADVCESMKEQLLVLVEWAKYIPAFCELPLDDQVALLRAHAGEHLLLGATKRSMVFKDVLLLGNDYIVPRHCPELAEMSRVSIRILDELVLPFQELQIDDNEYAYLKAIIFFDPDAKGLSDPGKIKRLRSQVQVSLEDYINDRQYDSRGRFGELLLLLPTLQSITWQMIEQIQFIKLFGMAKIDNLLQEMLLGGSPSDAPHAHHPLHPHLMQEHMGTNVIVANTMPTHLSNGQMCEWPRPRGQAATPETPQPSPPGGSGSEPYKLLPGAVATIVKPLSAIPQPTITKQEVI
ALR inh – inhibitors of human ALR sulfhydryl oxidase, primary screen, biochemical, H2O2 detection, HRP-luminol luminescence, single point; inhibition, % (no concentration beside the values); 290,000 compounds, 3.8% hits; purified ALR, DTT oxidation;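 active means mean and each replicate at 75% or more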;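 further: stock transfer was 7.5 nL into about 7.5 µL; 0% = neutral wells and 100% = wells with inactivated enzyme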
Target sequence (P55789 whole entry, looked up): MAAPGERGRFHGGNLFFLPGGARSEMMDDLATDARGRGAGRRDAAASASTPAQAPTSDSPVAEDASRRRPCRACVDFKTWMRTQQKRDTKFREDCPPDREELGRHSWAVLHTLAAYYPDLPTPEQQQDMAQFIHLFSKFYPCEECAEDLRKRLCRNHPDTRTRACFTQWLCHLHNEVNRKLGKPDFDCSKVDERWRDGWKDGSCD
rRNA inh HTS – reduced GFP signal of wild-type E. coli, primary screen, bacterial rRNA inhibitor project, GFP/RFP fluorescence, OD600, single point. GFP signal change (wild-type ribosome), % (concentration not given with the values). 350,000 compounds, 1.6% hits. E. coli WT GFP vs humanized-ribosome RFP mutants, 24 h; hits give low values; DMSO median 0, no signal -100;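 active means significant combined selectivity score with lowered wild-type GFP, culture density cut under 30%, mutant RFP and density less affected; inactive means any of these conditions unmet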; further: one replicate is shown; some compounds called inactive have numbers as strong as hits
rRNA inh HTS OD600 – also measured in rRNA inh HTS; calls as there; OD600 change, %; measured here: OD600 growth;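 optical density of the mix in the first replicate; 0 = DMSO median and -100 = no signal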
rRNA inh HTS RFP – further read-out of rRNA inh HTS, marked with its call; RFP signal change, %; measured here: RFP humanized mutant strains;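 first replicate; 0 = DMSO median and -100 = no signal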
Numbers without * were called inactive; i = inactive; · = no result given.

Order of results: UCH37 inh	FGF22 binding	E coli growth	B2AR ag	HNF4A DNA FP	ALR inh	rRNA inh HTS	rRNA inh HTS OD600	rRNA inh HTS RFP
> O=S1(=O)CC(N2CCN(c3ccccn3)CC2)CN1Cc1ccccc1 (stereo not drawn)
→ ·	i	·	·	1.0	·	-1	7	4.2
> Cc1cccc(-n2ccnc2SCC(=O)Nc2cc(C)on2)c1
→ 2.2	·	0.78	-3	-6.5	-20	·	·	·
> CN(Cc1ccnc2ccccc12)C(=O)C1CCC(=O)N(Cc2ccccc2F)C1 (stereo not drawn)
→ -4.1	i	0.69	-4	0.1	-3	-1	-10	-2.7
> CC(C)CCN1C(=O)c2ccc(C(=O)Nc3c[nH]c(=O)[nH]c3=O)cc2C1=O
→ -9.5	i	0.63	0	-0.8	-1	·	·	·
> O=C(c1ccco1)N1CCN(S(=O)(=O)c2ccc(C3CCCCC3)cc2)CC1
→ 3.1	·	0.73	4	-2.8	-3	·	·	·
> Cc1ccc(S(=O)(=O)N2CCN(C(=O)COC(=O)/C=C/c3ccc(F)cc3)CC2)c(C)c1
→ 4.3	i	0.71	-4	0.9	-7	10	10	4.0
> COc1ccc(NS(=O)(=O)c2cc(NC(=O)c3ccc(C)o3)ccc2N2CCCCC2)cc1
→ 3.8	·	0.71	-9	-3.6	-1	·	·	·
> O=C(Nc1ccc(S(=O)(=O)Nc2nccs2)cc1)c1cc(-c2ccccn2)nc2ccccc12
→ 2.6	i	0.72	-5	-1.3	-20	-20	-23	-5.4
> COC(=O)c1ccc(CSc2cc(C)c3cc(C)cc(C)c3n2)o1
→ 3.1	i	0.67	-1	3.5	20	5	2	3.3
> O=C(Nc1ncnc2c1ncn2[C@@H]1O[C@H](/C=C/C(=O)N2CCN(c3ccc(F)cc3)CC2)[C@@H](O)[C@H]1O)c1ccccc1
→ ·	i	·	·	9.5	·	-3	-3	1.1
> O=S(=O)(N[C@H](CO)c1ccccc1)c1ccc(Br)cc1F
→ 0.6	i	0.69	4	-2.1	·	1	-5	-6.1
> O=C(O)CCCN1C(=O)/C(=C/c2cn(-c3ccccc3)nc2-c2cccs2)SC1=S
→ 7.8	·	0.69	-1	1.9	·	·	·	·
> CC(NC(=O)c1ccco1)C(=O)N1CCN(S(=O)(=O)c2ccccc2C#N)CC1 (stereo not drawn)
→ ·	i	·	-7	-0.6	-3	-3	-1	-3.0
> COc1ccc(-c2csc(NC(C)c3nc4cc(C(=O)NCCCO)ccc4n3Cc3ccc(C)cc3)n2)cc1 (stereo not drawn)
→ 3.4	i	0.67	0	2.9	4	-2	4	7.2
> Cc1cc(NC(=O)CSc2ccc(-c3ccc(F)cc3)nn2)no1
→ 0.0	i	0.68	23	2.8	4	2	2	-5.1
> Cc1ccc(N2N=C(C(=O)O)CCC2=O)cc1Cl
→ 5.2	i	0.63	-4	-3.2	0	10	11	-0.3
> CC(=O)NC(Cc1ccccc1F)C(=O)NC1CCN(C(=O)c2cnccn2)CC1 (stereo not drawn)
→ 0.0	·	0.64	11	4.7	0	·	·	·
> CCN(CC(=O)Nc1cc(Cl)ccc1C)C(=O)c1nc2nc(C)cc(C)n2n1
→ 4.9	i	0.65	-5	2.6	2	11	15	2.7
> COc1ccccc1N(CC(O)COc1ccccc1)S(=O)(=O)c1ccccc1 (stereo not drawn)
→ 0.3	·	0.66	-10	2.5	-3	·	·	·
> COc1cccc(CN(C)C(=O)c2cc(COc3c(F)cccc3F)on2)c1
→ 0.4	·	0.71	-1	-0.4	5	-17	-15	0.5
> O=C(CCN=C1NS(=O)(=O)c2ccccc21)OCC(=O)c1ccc(F)c(F)c1
→ 4.4	i	0.64	4	2.1	-1	-3	-2	-1.2
> O=C(Nc1ccccc1Br)c1cc(=O)c2ccccc2o1
→ 6.0	i	0.67	4	0.9	·	-12	-10	1.3
> C1CCC(CNc2c3c(nc4nnnn24)CCCC3)CC1
→ 4.3	·	0.69	-8	2.0	1	·	·	·
> COc1cc(-c2c(C#N)c(N)nc3c2CCCC3)cc(OC)c1OC
→ -16	·	0.66	9	-2.4	-10	·	·	·
> CN(C)c1oc(-c2ccco2)nc1S(=O)(=O)c1ccc(Br)cc1
→ 4.6	i	0.69	-11	3.1	6	15	8	-2.4
> O=C(NCc1ccc(OC(F)(F)F)cc1)C1CC(c2c(Cl)cccc2Cl)=NO1 (stereo not drawn)
→ 0.8	i	0.69	-9	-2.8	-3	-16	-21	-4.8
> Cc1ccccc1C(c1ccccc1Cl)N(C)C (stereo not drawn)
→ -0.6	i	0.64	-7	1.2	·	·	·	·
> COc1ccc(CCNC(=O)CSc2nnc(CNC(=O)c3ccco3)o2)cc1OC
→ 1.5	·	0.75	12	-1.9	1	·	·	·
> CN(Cc1ccccc1)C(=O)c1ccc(NC(=O)Cc2ccc(NC(=O)C3CCCN(C(=O)C4CC4)C3)cc2)cc1 (stereo not drawn)
→ 2.5	i	0.66	-4	-4.4	·	-2	-5	7.5
> COc1cc(C(=O)N2CCN(C(=O)c3cc(-c4ccc(Br)cc4)n[nH]3)CC2)cc(OC)c1OC
→ 2.0	i	0.7	3	0.7	-7	0	0	0.4
> Cc1cc(C(=O)COc2cccnc2[N+](=O)[O-])c(C)n1-c1ccccc1
→ ·	i	·	-7	1.4	-14	9	8	1.4
> COCCCNC(=O)C(=O)NCCCOC(C)C
→ 3.4	·	0.67	-4	-1.0	2	·	·	·
> O=C(Nc1ccccc1Oc1ccccc1)c1cnccn1
→ 2.5	·	0.68	-4	-0.5	1	·	·	·
> O=c1ccc2ccc(Oc3ccc([N+](=O)[O-])cc3Cl)cc2o1
→ -2.2	i	0.71	-11	3.2	5	19	7	-2.2
> COc1ccc(-c2csc(NC(=O)c3c(C)noc3C)n2)cc1F
→ 0.7	i	0.68	3	-3.3	·	-16	-23	2.1
> Cn1nc(C(F)(F)F)c(C#N)c1N1CCN(c2ccccc2F)CC1
→ 0.8	·	0.74	6	-0.7	·	·	·	·
> O=C(Cn1cc([N+](=O)[O-])cn1)NCCc1c[nH]c2ccccc12
→ 1.1	i	0.71	-5	-1.0	2	8	5	2.4
> O=C(N/N=C/c1c(F)cccc1Cl)c1ccc(Cn2cc(Br)cn2)o1
→ ·	·	·	-6	-2.0	1	·	·	·
> CC(=O)Nc1ccc(S(=O)(=O)N2CCN(Cc3cccs3)CC2)cc1
→ 0.1	i	0.61	2	-5.3	-14	-20	-23	2.3
> CCOC(=O)c1c(NC(=O)C2COc3ccccc3O2)sc(C(C)=O)c1C (stereo not drawn)
→ 2.9	i	0.67	15	-1.2	-1	4	3	-2.5
> O=C(O)COCC(=O)N1CCCN(c2nccc(C(F)(F)F)n2)CC1
→ -1.8	·	0.67	-9	3.4	-2	·	·	·
> COc1nc(Oc2ccc(C(=O)OCC(N)=O)cc2)nc(N(C)C)n1
→ 3.0	·	0.7	0	-1.1	0	·	·	·
> O=c1[nH]c(SCc2ccccc2)nc2c1cnn2-c1ccc(F)cc1
→ 8.8	i	0.76	1	1.4	-11	6	8	0.5
> COc1cc(OC)cc(-c2sc3ccc(OC)cc3c2C#CCCO)c1
→ ·	i	·	6	3.5	-5	-22	-46	26
> CCCCn1c(N)c(N(CCOC)C(=O)COC(=O)c2cc(CC)c(C)s2)c(=O)[nH]c1=O
→ 3.7	i	0.64	2	-0.9	-3	-3	-5	-1.3
> O=C(c1ccccc1)c1ccccc1C(=O)N1CCOCC1
→ 1.5	i	0.65	18	-3.1	-4	10	5	-7.0
> Cc1ccccc1NC(=O)CSc1nnc(-c2ccco2)c(-c2ccco2)n1
→ 6.8	·	0.69	-11	-26	·	·	·	·
> Cn1ccc(C(=O)N/N=C/c2ccncc2)n1
→ ·	i	·	7	-0.5	·	16	20	9.6
> Cc1cc(C)cc(NS(=O)(=O)c2ccc3[nH]cc(C(=O)NCc4ccco4)c(=O)c3c2)c1
→ -0.8	·	0.7	-1	-3.2	4	·	·	·
> COc1ccc(-n2ncc(S(=O)(=O)c3ccccc3)c2-c2ccc(Cl)cc2)cc1
→ 3.3	·	0.79	8	-2.5	-5	·	·	·
> O=C(Nc1ccnn1C1CCN(CCCc2ccccc2)CC1)c1ccccc1Cl
→ 0.9	i	0.67	10	1.1	-1	8	2	3.9
> O=C(NCc1n[nH]c(=S)n1-c1cccc(C(F)(F)F)c1)c1ccc(S(=O)(=O)N2CCCC2)cc1
→ -0.2	i	0.69	4	7.5	3	-11	-6	-0.2
> COc1ccc(OC)c(NC(=O)C(=O)NNC(=O)COc2ccc(Br)cc2C)c1
→ -38	i	0.72	8	3.3	51	3	-2	2.5
> Cc1ccc(NC(=O)COC(=O)c2ccc3c(c2)NC(=O)C2CCCN32)cc1 (stereo not drawn)
→ -46	·	0.71	-1	5.8	-2	·	·	·
> CCC(C)Nc1c2c(nc3c(-c4ccccc4)c(C)nn13)CCC2 (stereo not drawn)
→ -56	i	0.66	-10	-0.2	8	1	-6	12
> N#Cc1cc2c(cc1NC(=O)CCn1cnnn1)OCO2
→ 0.9	i	0.73	-1	5.8	-11	-1	-3	-4.8
> Cc1ccc2c(c1)N(CC(=O)N(Cc1ccc3c(c1)OCO3)CC1CCCO1)C(=O)C(C)O2 (stereo not drawn)
→ 2.4	·	0.69	1	-2.5	0	·	·	·
> COc1ccccc1CNC(=O)OCc1nccnc1C(=O)Nc1ccc(Br)cn1
→ 1.5	i	0.73	-9	2.5	-5	9	11	-1.3
> OC(c1cccc(Cl)c1)c1ncc(-c2cccc(C(F)(F)F)c2)[nH]1 (stereo not drawn)
→ ·	i	·	·	0.5	·	-60	-80	-20
> CSc1ccccc1OCc1cc(C(=O)N(C)Cc2ccc3nsnc3c2)no1
→ 1.2	i	0.72	10	-4.7	-3	-11	-22	3.3

Carrying on.
Order of results: UCH37 inh	FGF22 binding	E coli growth	B2AR ag	HNF4A DNA FP	ALR inh	rRNA inh HTS	rRNA inh HTS OD600	rRNA inh HTS RFP
> CCc1c(C)sc(NC(=O)c2ccco2)c1C(=O)N1CCCCC1
→ 5.6	·	0.66	-10	4.9	81*	·	·	·
> O=C1CSCC(=O)N1Cc1ccc(Cl)c(Cl)c1
→ 2.4	i	0.69	-12	-0.5	12	-15	-10	1.4
> CCN(c1ccc(NC(=O)COC(=O)c2cc3ccccc3oc2=O)cc1)C(C)C
→ -2.1	i	0.66	2	0.2	·	3	-8	4.8
> Fc1ccc(CNC(=S)NCc2ccc(F)cc2)cc1
→ 5.2	i	0.59	-9	-0.2	-3	-31*	-2.9*	-2.8*
> CCCNC(=O)C1(C)CCCN(Cc2c(F)cccc2F)C1 (stereo not drawn)
→ ·	i	·	·	1.9	·	4	8	1.1
> CCc1nc(SCc2ccccc2C#N)n[nH]1
→ 1.0	i	0.65	7	4.9	-5	10	2	0.3

Sorted by SMILES length (high to low): part of the list above.
Order of results: UCH37 inh	FGF22 binding	E coli growth	B2AR ag	HNF4A DNA FP	ALR inh	rRNA inh HTS	rRNA inh HTS OD600	rRNA inh HTS RFP
> CCN(c1ccc(NC(=O)COC(=O)c2cc3ccccc3oc2=O)cc1)C(C)C
→ -2.1	i	0.66	2	0.2	·	3	-8	4.8
> CCc1c(C)sc(NC(=O)c2ccco2)c1C(=O)N1CCCCC1
→ 5.6	·	0.66	-10	4.9	81*	·	·	·
> O=C1CSCC(=O)N1Cc1ccc(Cl)c(Cl)c1
→ 2.4	i	0.69	-12	-0.5	12	-15	-10	1.4

Not all compounds are listed; the hit share may differ from the screen's.
